Screening data deposited in PubChem by several laboratories.
BJeLR lethal: BJeLR cell viability loss. AID 1554. BJeLR (HRASV12) viability, CellTiter-Glo ATP luminescence, 48 h; reference of the scale not given here. hit rate 0.17% among 300,000. inhibition, % (no concentration beside the values);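 active means replicate mean above 50%; inconclusive means above 50% but judged a plate artefact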;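 further: 50 nL library stock added to about 25 µL; numbers are from one replicate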
Mtb hypoxia inh: inhibitors of hypoxia-regulated fluorescent reporter in Mycobacterium tuberculosis; fluorescence inhibition, % (no concentration beside the values); M. tuberculosis hypoxia-regulated fluorescent reporter, fluorescence; hit rate 0.1% among 300,000;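 active means 35 to 45% if threefold the growth effect, above 45% if 1.5-fold the growth effect; inactive means the rest, general growth blockers included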;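 further: wells of about 50 µL received 100 nL stock; 0% = vehicle wells and 100% = reference inhibitor wells; whole bacteria with a GFP reporter of the hypoxia response; strong numbers were not always called active; many hits fall short of the cut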
PrP 5UTR inh: suppresses PrP 5' UTR mRNA reporter expression; cell-based PrP 5' UTR mRNA reporter, plate reader; inhibition, % (concentration not given with the values); hit rate 0.35% among 340,000; AID 488862;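 active means every replicate at 50% or more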;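 further: 0 = median of the neutral control wells; tested in H4 reporter cells; numbers are from one replicate; inactives centre near -14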
Bead autofluor: flagged as autofluorescent in microsphere protease counterscreen; fluorescence intensity (no concentration beside the values); compound autofluorescence counterscreen, microsphere flow cytometry; hits give high values; hit rate 3.1% among 360,000;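 active means at least 3 SD above the mean of all compounds, about 16000 in these data; inconclusive means too few beads counted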;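 further: 100 nL of 1 mM stock went into each well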
RN4220 kill: S. aureus RN4220 growth inhibition; OD600, 16 h; inhibition, % (test concentration not listed); hit rate 0.33% among 330,000; AID 1259311;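 active means z-score of -3 or lower and OD600 up to 0.18 on both plates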;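 further: plate controls were untreated cells for no effect and reference antibiotic for full effect; stock transfer was 100 nL into about 80 µL; one replicate is shown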
Sa ugtP lethal: compounds lethal to S. aureus RN4220 ugtP deletion mutant. AID 1259309. growth inhibition, % (no concentration beside the values). OD600 growth, 16 h; some inactives read as strong as hits. hit rate 0.54% among 330,000;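 active means z-score under -3 and OD600 up to 0.15 on both plates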;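 further: plate controls were untreated wells for no effect and antibiotic for full effect; wells of about 80 µL received 100 nL stock; the first replicate is given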
Mtb hypoxia inh growth: further read-out of Mtb hypoxia inh, marked with its call; growth inhibition, %; measured here: M. tuberculosis growth (absorbance);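 0% = vehicle and 100% = reference antibiotic; read after six days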
* = called active by the depositor; ? = inconclusive; / = not tested or not shown.

SMILES | BJeLR lethal | Mtb hypoxia inh | Mtb hypoxia inh growth | PrP 5UTR inh | Bead autofluor | RN4220 kill | Sa ugtP lethal
CC1CN(c2ccc(NC(=S)Nc3ccc(N4CC(C)OC(C)C4)cc3)cc2)CC(C)O1 (configuration not stated) | -1 | / | / | -14 | 6673 | 0.4 | 2
CSc1ccc(C2C(C#N)=C(N)Oc3cc4c(cc32)OCO4)cc1 (configuration not stated) | 8 | 1 | 1 | -2 | 10059 | -6.4 | -5
Fc1ccc(-c2nc3c(-c4ccc(Cl)cc4)cnn3cc2CCN2CCOCC2)cc1 | 13 | -3 | -2 | 0 | 4676 | 11 | 2
N#CC1(NC(=O)COC(=O)C23CC4CC(CC(O)(C4)C2)C3)CCCCC1 | -13 | 4 | -1 | -10 | 6625 | 5.0 | 6
COc1ccc(CCNC(=O)CSc2nnc3ccc(-c4ccccn4)nn23)cc1OC | -3 | 3 | 7 | -26 | / | 4.2 | 14
CC(C)c1ccc(N(CC(=O)O)S(=O)(=O)c2cccnc2)cc1 | 6 | / | / | -19 | 6096 | 3.6 | 9
CC(=O)Nc1ccc(C(=O)OCc2ccccc2Br)cc1 | -3 | 9 | 12 | -13 | 4258 | -1.7 | 4
O=C1CC(Cc2ccc(Cl)cc2)C(=O)N1c1cc(Cl)ccn1 (configuration not stated) | -1 | 17 | -2 | -28 | 4753 | 4.0 | 2
O=C1CCC(=O)N1CCc1c[nH]c2ccccc12 | -3 | / | / | -23 | 4946 | 2.2 | 2
Cc1cccc(-n2c(CNC(=O)c3ccc(S(=O)(=O)N4CCCCC4)cc3)n[nH]c2=S)c1 | -14 | -1 | 12 | -11 | 6395 | 1.4 | 7
Cc1ccc2c(O)c(C)c(=O)[nH]c2n1 | 6 | 13 | 4 | -18 | 4510 | 2.6 | 6
Cc1ccc(S(=O)(=O)N2CCCOC2CNC(=O)C(=O)NCCc2c[nH]c3ccccc23)cc1 (configuration not stated) | 0 | 12 | 0 | -3 | 2030 | 2.9 | 8
CCOc1ccc(N(CC(=O)NC2CC2)S(=O)(=O)c2ccc(C)cc2)cc1 | 12 | -9 | -8 | -15 | 5390 | -1.8 | -2
CC(C)c1ccc(/C=C/C(=O)NCCCc2ccccc2)cc1 | -2 | 13 | 3 | -3 | 1978 | -6.3 | 0
O=C(/C=C/c1ccc(Cl)cc1Cl)c1nc2ccccc2[nH]1 | -11 | 7 | 3 | 1 | 3351 | 7.3 | 6

Three compounds out of the list, arranged by molecular weight, smallest number first:
SMILES | BJeLR lethal | Mtb hypoxia inh | Mtb hypoxia inh growth | PrP 5UTR inh | Bead autofluor | RN4220 kill | Sa ugtP lethal
N#CC1(NC(=O)COC(=O)C23CC4CC(CC(O)(C4)C2)C3)CCCCC1 | -13 | 4 | -1 | -10 | 6625 | 5.0 | 6
CCOc1ccc(N(CC(=O)NC2CC2)S(=O)(=O)c2ccc(C)cc2)cc1 | 12 | -9 | -8 | -15 | 5390 | -1.8 | -2
Cc1cccc(-n2c(CNC(=O)c3ccc(S(=O)(=O)N4CCCCC4)cc3)n[nH]c2=S)c1 | -14 | -1 | 12 | -11 | 6395 | 1.4 | 7

Back to the main list; the 2 compounds before the break are reprinted first.
SMILES | BJeLR lethal | Mtb hypoxia inh | Mtb hypoxia inh growth | PrP 5UTR inh | Bead autofluor | RN4220 kill | Sa ugtP lethal
CC(C)c1ccc(/C=C/C(=O)NCCCc2ccccc2)cc1 | -2 | 13 | 3 | -3 | 1978 | -6.3 | 0
O=C(/C=C/c1ccc(Cl)cc1Cl)c1nc2ccccc2[nH]1 | -11 | 7 | 3 | 1 | 3351 | 7.3 | 6
CCO[C@@H]1OC(C(=O)NCc2ccccc2)=C[C@H](c2coc3ccccc3c2=O)[C@H]1CCCO | 3 | / | / | -9 | 3845 | / | /
NC(N)=NN=Cc1ccccc1OC(F)F | / | 4 | -2 | / | / | 16 | 3
CCOC(=O)c1[nH]c2ccccc2c1NC(=O)c1ccc(S(=O)(=O)N2CCOCC2)cc1 | -4 | 4 | 3 | 21 | 4455 | 12 | 8
Cc1c(C)c2ccc(OCC(=O)Nc3ccccn3)cc2oc1=O | -1 | 3 | -3 | -10 | 3992 | -1.5 | -3
O=C(CSc1nc2ccccc2c(=O)n1Cc1ccc(F)cc1)NCC1CCCO1 (configuration not stated) | / | -6 | 0 | -3 | 6755 | 2.1 | -6
O=C(NCc1ccccc1)c1cccc(Br)n1 | 5 | 16 | 14 | -11 | 3913 | 5.2 | 2
CCc1cccc(C)c1NC(=S)N(CCN(C)C)C(C)c1ccco1 (configuration not stated) | 16 | 5 | 3 | -28 | 4332 | 5.3 | 6
Cc1ccc(S(=O)(=O)Cc2ccccc2Cl)cc1 | -8 | 10 | 11 | -24 | 2146 | 6.8 | 3
O=C(O)c1cccnc1Cl | 4 | -11 | -3 | -10 | 2438 | -1.1 | -1
Clc1cc(Br)ccc1OCCOCCN1CCCC1 | -5 | 11 | 1 | 4 | 3675 | -0.5 | 2
COCCCNC(=O)Cc1c(C)c2c(cc(C)c3c(C)c(C)oc32)oc1=O | 25 | 11 | 5 | 0 | 3189 | 2.6 | 4
NC(=O)c1ccsc1NC(=O)COC(=O)c1cccnc1Cl | / | 7 | 8 | 7 | 3444 | 4.4 | 7
N#Cc1ccc(C(=O)OCCc2cc3ccccc3c(=O)o2)cc1 | / | 2 | 2 | -9 | 4270 | 4.7 | 4
Cc1ccc(C(=O)CC(=O)c2ccccc2C)c(O)c1 | 1 | 0 | 8 | -8 | 3758 | 83 | 87*
Cc1ccc(C(=O)N2CC=C(c3ccccc3)CC2)s1 | 5 | 7 | 4 | -2 | ? | 10 | 0

Brought forward from above: 2 entries; new compounds follow.
SMILES | BJeLR lethal | Mtb hypoxia inh | Mtb hypoxia inh growth | PrP 5UTR inh | Bead autofluor | RN4220 kill | Sa ugtP lethal
Cc1ccc(C(=O)CC(=O)c2ccccc2C)c(O)c1 | 1 | 0 | 8 | -8 | 3758 | 83 | 87*
Cc1ccc(C(=O)N2CC=C(c3ccccc3)CC2)s1 | 5 | 7 | 4 | -2 | ? | 10 | 0
COc1ccc(OCC(=O)NN=Cc2ccc(OC)c(OC)c2C(=O)O)cc1 | / | 3 | -3 | / | / | 4.0 | 10
CC(=O)Nc1cc(C(=O)OCC(=O)c2ccccc2)ccc1C | -3 | 6 | 7 | -6 | 6995 | 2.0 | -1
COc1cc(OC)c(S(=O)(=O)Nc2ccc(C(=O)N3CCCC3)cc2)cc1NC(C)=O | 2 | / | / | -46 | 4188 | / | /
O=C(NCc1cccs1)C(=O)NCC(c1ccco1)N1CCN(c2ccc(F)cc2)CC1 (configuration not stated) | 14 | -13 | 6 | -13 | 4429 | 4.7 | 14
Cc1c(Nc2nc(-c3ccccc3)cs2)c(=O)n(-c2ccccc2)n1C | -3 | 7 | 1 | -27 | 2059 | 4.2 | 2
Cc1cccc(N(CC(=O)NN=Cc2ccccc2C(=O)O)S(C)(=O)=O)c1C | / | -4 | 7 | / | / | 4.9 | 2
O=C(NN1CCN(Cc2ccccc2)CC1)c1ccc(N2CCOCC2)c([N+](=O)[O-])c1 | 10 | 8 | 0 | -9 | 4199 | 0.9 | 1
CC(CC(=O)Nc1cccc(C(F)(F)F)c1)=NNC(=O)C(=O)NCC(C)C | / | -2 | 1 | / | / | 4.1 | -2
COc1ccccc1-c1c(-c2ccc(OCC(=O)NN)cc2O)n[nH]c1C(F)(F)F | 1 | 0 | 7 | 13 | 2119 | 6.7 | -6
Cc1cccc(NC(=O)C2CCN(C(=O)c3ccco3)CC2)c1C | 4 | -2 | -5 | -17 | 4459 | 6.4 | 0
COc1ccc(C(=O)OCCCOC(=O)c2ccc(OC)cc2OC)c(OC)c1 | -13 | 5 | 10 | -17 | 5837 | 5.9 | 13
COCCCNC(=S)Nc1ccc(CC(=O)O)cc1 | 5 | -8 | 6 | -13 | 2054 | -1.7 | -2
CCOC(=O)C1CCN(CCC(=O)Nc2ccccc2Cl)CC1 | -5 | 0 | 1 | -5 | 6550 | 0.1 | 2
Nc1ccc(OC(=O)Nc2ccc(O)cc2)cc1 | 1 | 13 | -5 | 41 | 3437 | 4.0 | 3
O=C1N(Cc2cccc(Cl)c2)C[C@@H]2C[C@@H](c3ccc4nonc4c3)N3CCC[C@@]123 | 6 | -1 | 1 | -3 | 4622 | -3.4 | -2
CSc1nc(N)nc2c1ncn2CC(=O)NCc1ccc2[nH]ccc2c1 | / | -9 | 3 | -27 | 3807 | 2.5 | 1
NC(=O)c1cc2ccccc2o/c1=N/NC(=O)c1cccc(F)c1 | -3 | / | / | -14 | 3807 | / | /
Fc1ccc(-c2cn3ccccc3n2)cc1 | -13 | 13 | -1 | -22 | 4231 | 6.0 | 10
O=C(OCCOc1ccccc1)c1cc(S(=O)(=O)N2CCOCC2)ccc1Cl | / | 10 | 5 | -21 | 3536 | 1.9 | 8
CCOC(=O)CN(C)C(=O)CCc1nnc(-c2ccsc2)o1 | 5 | 10 | 8 | -33 | 3993 | 2.1 | 5
CCc1ccc(CN(C)C(=O)C2CCC(=O)N(CC3CCCCC3)C2)cc1 (configuration not stated) | 3 | -9 | 3 | -2 | 5617 | -1.2 | -6
CC(C)(C)c1ccc(S(=O)(=O)Nc2ccc(Cc3ccncc3)cc2)cc1 | -2 | -2 | -5 | -16 | 7519 | 4.1 | -8
Cc1c(C(=O)N/N=C/c2cccnc2)sc(N)c1C#N | 2 | / | / | 10 | 3407 | / | /
O=C(Nc1nnc(S(=O)(=O)N2CCOCC2)s1)c1ccccc1 | -8 | 0 | 6 | -23 | 6110 | 7.0 | -4
CN(CC(=O)Nc1ccc(S(=O)(=O)N2CCCC2)cc1)Cc1ccc(Cl)c(Cl)c1 | -5 | 6 | 1 | -10 | 2345 | -2.0 | -14
CCc1nc2ccccc2c(C(=O)OCC(=O)NC2CCCC2)c1C | / | 10 | 10 | -19 | 3305 | 4.1 | 2
CC(C)Cn1c(N)c(C(=O)COC(=O)c2cccc(F)c2)c(=O)n(C)c1=O | / | 15 | 0 | 0 | 3696 | 9.8 | 0
CN(C(=O)c1ccc(NC(=O)Cc2ccc(NC(=O)C3CCCN(C(=O)CCc4ccccc4)C3)cc2)cc1)C1CC1 (configuration not stated) | / | 16 | 7 | -19 | 4073 | 11 | 8
OC(COc1ccccc1)CN1C2=NCCCN2c2ccccc21 (configuration not stated) | -1 | / | / | -23 | 5100 | 1.5 | 2
O=C(O)COc1ccc(C=NNC(=O)COc2nsnc2N2CCOCC2)cc1 | / | 18 | 6 | / | / | 6.5 | 2
Cc1cc(C(=O)NC2CCCc3ccccc32)c(C)o1 (configuration not stated) | -3 | / | / | -27 | 2272 | 2.0 | 0
CC(=NNC(=O)CSCC(=O)NN=C(C)c1ccccc1)c1ccccc1 | / | -4 | 2 | -19 | 3810 | -3.0 | -8
Cc1cc(NC(=O)COC(=O)c2ccc(F)c(S(=O)(=O)N3CCOCC3)c2)no1 | 6 | / | / | -16 | 2953 | -4.1 | -4
COc1ccc(/C=C/C(=O)NCCN2CCOCC2)cc1OC | -3 | 11 | 0 | -10 | 4338 | 3.7 | 4
Cc1cc(N2CC(=O)N(CCc3ccccc3)C(=O)C2)n2ncnc2n1 | 3 | 0 | -4 | -13 | 8976 | 2.3 | 1
CC(C)(C)NC(=O)c1ccc(Sc2ccccc2)c([N+](=O)[O-])c1 | -5 | / | / | -51 | 2400 | -7.1 | 5
NC(=O)NC(=O)CSc1nnc(-c2ccco2)n1Cc1ccccc1 | 0 | / | / | -33 | 4488 | 0.3 | 7
Cc1cccc(OCCCC(=O)Nc2ccc(N3CCOCC3)cc2)c1 | -2 | 2 | 6 | -28 | 6032 | 5.5 | 15
C/C(=N\NC(=O)CSc1nc2nc(C)cc(C)n2n1)c1ccccc1 | -3 | / | / | -10 | 7699 | / | /
COc1ccc(C(=O)Nc2ccccc2C(=O)NCC2CCCO2)cc1 (configuration not stated) | -1 | -3 | -2 | 0 | 4898 | 4.2 | 7
Cc1cc(NC(=O)CSc2nnnn2-c2ccccc2F)no1 | -1 | -9 | 7 | -14 | 5426 | 1.8 | -3
CC(C)[C@H](NC(=O)Cc1ccccc1)C(=O)OCc1cc(=O)n2c(n1)sc1ccccc12 | -12 | -2 | 2 | 6 | 2428 | 4.1 | -7

Whole records, quoted from the list. Values in the order: BJeLR lethal	Mtb hypoxia inh	Mtb hypoxia inh growth	PrP 5UTR inh	Bead autofluor	RN4220 kill	Sa ugtP lethal
CC(C)(C)NC(=O)c1ccc(Sc2ccccc2)c([N+](=O)[O-])c1 is entered as -5	/	/	-51	2400	-7.1	5
Cc1cccc(OCCCC(=O)Nc2ccc(N3CCOCC3)cc2)c1 is entered as -2	2	6	-28	6032	5.5	15

This is a random part of the collection (roughly 3.9% active in at least one column).
